Rango release inh: qHTS Assay for Inhibitors of RanGTP induced Rango (Ran-regulated importin-beta cargo) - Importin beta complex dissociation; Snurportin-1 (Homo sapiens) + GTP-binding nuclear protein Ran (Homo sapiens) + Importin …; Potency, µM (series often up to 46.1 µM), inactives show top-dose activity change, negative = inhibition; Biochemical FRET Rango-importin beta, RanGTP-induced dissociation; AID 540253, 2011; hit rate 0.071% among 340,000; active means falling FRET ratio curve, often poorly fitted, with flat reads before Ran was added; inconclusive means other falling curves, or compound fluorescence or quenching; inactive means flat or rising ratio curve;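 also: potency is read from the fitted curve at half-maximal effect; % of control where 0% means no effect; nearly all actives have a fitted effect of over 45% in size; -100% = wells without RanGTP and RCC1; the record marks most hits as doubtful in a second field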
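Compounds preincubate 5 min with complex of recombinant Rango and importin beta in PBS with 1 mM DTT. Ran (0.6 uM) loaded with 2 mM GTP plus 0.2 uM RCC1 starts dissociation; FRET is recorded 45 min later.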
miR-21 reporter: qHTS Assay for Modulators of miRNAs and/orActivators of miR-21. HeLa miR-21 FLuc reporter, luciferase, 48 h. Potency, µM (series often up to 38.3 µM), for inactives: top-dose reporter change, positive = more light. 340,000 tested, under 10 active. AID 2288, 2010; active = well fitted rising curve with a large enough effect; inconclusive = small, poorly fitted or top-dose-only effect; inactive = no such curve, though single readings can be large or run the other way;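 also: % of control where 0% means no effect; miR-21 action dims this reporter so a rising signal means less miR-21 action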
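HeLa cells stably expressing CMV-driven firefly luciferase with a downstream miR-21 binding sequence, endogenously expressing miR-21, were treated with titrations (up to about 40uM final) for 48 hours at 37 degree Celsius. Luciferase luminescence was read after lysis.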
Rango complex inh: qHTS Assay for Inhibitors of Rango (Ran-regulated importin-beta cargo) - Importin beta complex formation | Importin subunit beta-1 (Homo sapiens), Q14974 | Rango CFP/YFP FRET sensor + importin beta, 45 min | Potency, µM (series often up to 92.2 µM), for the others: at the highest dose inhibition of complex formation | hit rate 0.031% among 340,000 | AID 540263, 2011; active = rising FRET ratio curve, often small or poorly fitted; inconclusive = mostly compound fluorescence or quenching in the first reads; inactive = flat curves in all reads;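 also: potency is read from the fitted curve at half-maximal effect; 0% = DMSO wells and 100% = buffer wells lacking importin beta; nearly all actives have a fitted effect of over 15% in size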
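Inhibition scored from the CFP 486 nm/YFP 530 nm FRET ratio 45 min after adding 0.125 microM importin beta to 50 nM Rango biosensor preincubated 5 min with compound (room temperature, PBS with DTT, Tween-20, BSA). No-importin wells as positive control.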
GLA inh pH 4.5: qHTS Assay for Inhibitors of Human alpha-Galactosidase at pH 4.5 | AID 1467, 2008 | activity change, negative = inhibition, % at 105 µM | 230,000 tested, under 10 active | purified enzyme, 4-MU-alpha-Gal fluorescence, pH 4.5; inconclusive = small, poorly fitted or top-dose-only inhibition, or a rising curve; inactive = flat fitted curve, though single readings scatter; no compound was filed as active;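 also: 0% = full activity with enzyme and -100% = basal without enzyme; dose as in the result columns while the protocol names 77 µM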
Target sequence (P06280 whole entry, looked up): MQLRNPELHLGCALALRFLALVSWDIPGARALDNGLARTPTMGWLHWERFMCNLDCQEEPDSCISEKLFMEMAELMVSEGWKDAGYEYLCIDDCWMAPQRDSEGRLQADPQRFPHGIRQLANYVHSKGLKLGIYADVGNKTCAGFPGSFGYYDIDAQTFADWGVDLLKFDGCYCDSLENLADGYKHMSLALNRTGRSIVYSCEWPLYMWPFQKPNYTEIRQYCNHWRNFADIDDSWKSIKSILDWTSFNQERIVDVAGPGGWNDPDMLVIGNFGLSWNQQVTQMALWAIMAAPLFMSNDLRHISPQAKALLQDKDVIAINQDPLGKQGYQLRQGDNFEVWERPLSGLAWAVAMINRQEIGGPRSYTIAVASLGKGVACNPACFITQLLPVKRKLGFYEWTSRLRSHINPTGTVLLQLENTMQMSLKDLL
Starred values were filed as active, the others as inactive; ? = inconclusive; . = not tested or not shown; & = joins results of further samples. An excerpt, so the mix of outcomes need not match the whole.

Every second line gives: Rango release inh, miR-21 reporter, Rango complex inh, GLA inh pH 4.5
- Cc1cc(NC(=O)CC23CC4CC(C2)CC(CC(=O)Nc2cc(C)on2)(C4)C3)no1
    1%, -4%, -1.5%, -2
- Cc1ccc(NCCNc2ccc(C)cc2)cc1
    28%, -6%, 10%, 11
- COc1ccc(CCNC(=O)C(=O)NCc2ccccc2)cc1OC
    -9%, 14%, 2.9%, -9
- CC1(C)Cc2c(cnn2-c2ccccc2)C(NC(=O)CCCN2CCCC2=O)C1 (configuration not stated)
    -18%, -4%, 2.4%, .
- CCOC(=O)c1ccc(S(=O)(=O)N2CCN(CC(O)COc3ccc(C#N)cc3)CC2)cc1 (configuration not stated)
    1%, 4%, 2.6%, .
- CCN(CC(=O)Nc1ccc(OC)cc1)C(=O)c1ccc(NS(=O)(=O)c2ccc(C(C)=O)cc2)cc1
    6%, ., -0.1%, .
- Cn1cccc1C(=O)OCC(=O)NCc1ccc2c(c1)OCO2
    -3%, ., ?, .
- O=C(COC(=O)c1ccco1)Nc1ccc(N2CCOCC2)cc1
    4%, ., -3.0%, .
- O=C(Cc1cccs1)Nc1ccc(-c2nnc(-c3ccco3)o2)cc1
    -12%, -23%, -1.5%, -4
- COc1ccc(C)cc1NS(=O)(=O)c1ccc2c(c1)N(C(C)=O)CCO2
    0%, 4%, -0.4%, .
- CCc1ccc(NC(=O)C2CCN(S(=O)(=O)c3ccc4c(c3)CC(C)N4C(C)=O)CC2)cc1 (configuration not stated)
    -2%, ?, -0.4%, .
- O=C(/C=C/c1ccc2c(c1)OCO2)NCCSCc1ccc(Cl)cc1Cl
    25%, -2%, 0.0%, -5
- COc1ccc(NC(=O)c2c(F)c(F)c(F)c(F)c2F)cc1Cl
    -7%, -15%, -0.2%, -5
- COc1cccc(OCC(=O)Nc2ccccc2C(N)=O)c1
    8%, -43%, 2.9%, 1
- CN1OC[C@@H]2CN(C(=O)CCc3ccccc3)[C@H](c3cccc(N4CCOCC4)c3)C[C@@H]21
    -10%, ., 0.0%, .
- O=C(NCc1cccnc1)c1cn(-c2ccccc2)nc1-c1cccs1
    0%, -17%, 1.6%, 3
- COc1ccc(CCNC(=O)COc2cc(C)cc3oc(=O)cc(C)c23)cc1OC
    21%, -3%, -3.6%, .
- O=C(NCCN1CCN(Cc2ccccc2)CC1)C1CC(=O)N(C2CCCC2)C1 (configuration not stated)
    11%, -5%, 0.1%, 5
- CCn1c(SCC(N)=O)nc2sc3c(c2c1=O)CCN(C)C3
    ?, 6%, ?, 5
- COc1ccc(C(=O)Nc2ccc(N3CCN(Cc4ccccc4)CC3)cc2)cc1
    1%, 0%, -0.1%, 12
- O=C(/C=C/c1cccc(Cl)c1)Nc1ccncc1
    -2%, -17%, 1.3%, -10
- O=C(O)c1cccc(N2C(=O)c3cc([N+](=O)[O-])cc4cc([N+](=O)[O-])cc(c34)C2=O)c1
    -9%, 20%, 2.8%, .
- CCOc1ccc(S(=O)(=O)N(CC(=O)O)c2ccccc2)cc1
    1%, -8%, -1.3%, -5
- Cc1cc(N2CCN(c3ccc(F)cc3)CC2)nc2cc(O)ccc12
    -14%, -29%, ?, 2
- CCCC(=O)c1cc(F)c(N2CCN(C(=O)OCC)CC2)cc1C
    8%, 1%, -3.9%, 2
- N#Cc1ccc(N2CCCC2C(=O)O)c([N+](=O)[O-])c1 (configuration not stated)
    1%, 0%, 0.6%, -2
- CCCn1c(C2CCCN2c2nc(-c3ccc(C)cc3)cs2)nc2ccccc21 (configuration not stated)
    -4%, 18%, -0.1%, .
- CC(=O)NC1CC2CCCC(C1)N2CC(=O)Nc1ccccc1 (configuration not stated)
    4%, -3%, 1.1%, 10
- O=C(NC1CCCCC1)C1CCCN(S(=O)(=O)c2cccc3cccnc23)C1 (configuration not stated)
    2%, 0%, -1.2%, -4
- CCOC(=O)C(C(=O)OCC)C(C)(C)/C(C)=N\Nc1ccc([N+](=O)[O-])cc1[N+](=O)[O-]
    5%, -6%, 1.2%, -8
- COc1ccccc1CNc1nc(C)c(C(C)=O)s1
    -2%, -23%, ?, .
- CC(C)(C)OC(=O)C[C@H]1C/C=C\C[C@@H](CC(=O)NCCO)C(=O)N[C@H](Cc2ccccc2)COC1=O
    -7%, ., -2.7%, .
- O=C(NCCCNC(=O)NC1CCCCC1)NC1CCCCC1
    22%, ., 0.7%, .
- Cc1cc(C(=O)O)c(C)n1Cc1ccncc1
    1%, -5%, -1.3%, 1
- Cc1c(C(=O)Nc2cc(S(=O)(=O)N3CCOCC3)ccc2N2CCOCC2)oc2ccccc12
    19%, -5%, -1.5%, 3
- CC(C)CN(C(=O)C1CC1)c1c(N)n(Cc2ccccc2)c(=O)[nH]c1=O
    0%, ., 4.9%, .
- CC1=C(/C=C/C(C)=C/C=C/C(C)=C/C(=O)O)C(C)(C)CCC1
    6%, -15%, 4.0%, -7&-22&-14&-23
- CCCOc1ccc(Cn2ccnc2)cc1[N+](=O)[O-]
    -4%, -15%, -2.1%, -8
- COc1cccc(/C=N/Nc2ccc(Cl)nn2)c1OC
    -12%, ., -0.4%, .
- Cc1ccsc1C(=O)N1CC=C(c2ccccc2)CC1
    1%, ., 0.0%, .
- COc1ccc(-c2cccc(NS(=O)(=O)c3cc([N+](=O)[O-])ccc3Cl)c2)nn1
    1%, ., 1.9%, .
- COc1ccc(C(=O)COc2ccc(NC(C)=O)cc2)cc1
    7%, -8%, 0.4%, 1
- COc1ccc(S(=O)(=O)N2CCCCCC2)cc1N(C)S(=O)(=O)c1ccc(C)cc1
    -16%, 9%, 4.0%, -9
- O=C(Nc1ccccc1)O/N=C(\c1ccccc1)c1ccccn1
    3%, -16%, -2.7%, -1
- COc1ccc(OC)c(Nc2nc(C3CC3)nc3c2nnn3Cc2ccccc2)c1
    9%, -3%, -6.4%, 16
- CC(C)CC(C(=O)O)N1C(=O)C2C3C=CC(C2C1=O)C1C(=O)N(C(CC(C)C)C(=O)O)C(=O)C31 (configuration not stated)
    -1%, -1%, 4.3%, .
- Cc1ccc(S(=O)(=O)CCc2nnc(NC(=O)c3ccccn3)s2)cc1
    1%, -4%, 0.0%, 6
- O=C(OCCCC(=O)N1CCOCC1)c1ccccc1
    1%, -14%, -4.3%, -5
- Cc1cc(NC(=O)CCSc2ccccc2)no1
    6%, -10%, -4.7%, -4
- S=C(NCCc1ccccc1)NC1CC2CCC(C1)N2Cc1ccccc1 (configuration not stated)
    2%, -3%, 3.9%, -8
- CC1Cc2ccccc2N1C(=O)c1cc2sccc2n1Cc1ccccc1 (configuration not stated)
    -6%, 1%, -0.6%, 2
- Cn1c(Cc2nc(-c3cnccn3)no2)nnc1SCC(=O)Nc1ccccc1
    1%, 2%, -4.3%, -4
- CN1CCN(C(=O)c2cnn3c(C(F)(F)F)cc(-c4cccs4)nc23)CC1
    -10%, -11%, 2.7%, -5
- Clc1ccc(-c2nnc(-c3ccccc3Cl)o2)cc1
    -6%, -49%, 0.0%, -8
- CCOCCCNC(=O)C(c1ccc(C)cc1)N(Cc1ccc2c(c1)OCO2)C(=O)CNC(C)=O (configuration not stated)
    -9%, -3%, 1.2%, 3
- O=C1CC/C=C\C[C@@H](CC(=O)N(CCO)Cc2ccccc2)C(=O)N[C@H](Cc2ccccc2)CO1
    4%, ., 0.1%, .
- Cc1cccc(C(=O)Nc2ncc(CN3CCOCC3)s2)c1
    18%, -17%, ?, -2
- CCOC(=O)C(CC)(CCC(=O)O)c1csc(Nc2ccc(C)cc2)n1 (configuration not stated)
    -7%, -6%, 0.5%, 3
- CN(C)C=Nc1nonc1-c1ncn[nH]1
    -8%, -3%, -0.1%, -11
- Cc1ccc(NC(=S)NCCc2ccccc2)c(C)c1
    -4%, -11%, -5.4%, 5

Next entries
Every second line gives: Rango release inh, miR-21 reporter, Rango complex inh, GLA inh pH 4.5
- CC(C)c1ccc(N(CC(=O)NC2CCCCC2)C(=O)CCC(=O)Nc2ccccn2)cc1
    -1%, -3%, 0.5%, .
- O=C(Cc1c(Cl)cccc1Cl)N1CCN(S(=O)(=O)c2cccs2)CC1
    -9%, ., -3.9%, .
- Cc1ccc(S(=O)(=O)Nc2nc3ccccc3nc2NCc2ccco2)cc1
    ?, -49%, ?, 0
- CCN(C(=O)COC(=O)c1ccc2ccccc2n1)c1c(N)n(Cc2ccccc2)c(=O)[nH]c1=O
    20%, ., -0.6%, .
- COc1ccc(S(=O)(=O)N(CCc2ccccc2)CC(=O)O)cc1OC
    10%, 1%, 0.3%, 5
- C[C@@H]1COC(=O)CCC/C=C\C[C@@H](CC(=O)N(CCO)Cc2ccccc2)C(=O)N1
    11%, ., -1.7%, .
- COc1cc2c(C#CCO)c(-c3ccc(C#N)cc3)oc(=O)c2cc1OC
    7%, ., 0.5%, .
- Cc1ccc(C(=O)NCC(=O)OC(C)C(=O)Nc2ccc(N(C)C)cc2)s1 (configuration not stated)
    1%, -10%, -2.4%, 4
- CC(=O)c1cc2c(cc1NC(=O)C1CN(C(C)=O)c3ccccc3O1)OCO2 (configuration not stated)
    -16%, ., -2.8%, .
- COC(=O)CSc1nnc(-c2ccccc2O)n1-c1ccc(C)cc1
    2%, -6%, -1.2%, -4
- CCOc1ccc(/C=C2\SC(=S)N(CCC(=O)N(CCO)c3ccccc3)C2=O)cc1
    -12%, 14%, 0.0%, .
- Cc1[nH]c2ccccc2c1/C=N/NC(=O)C1CC1(c1ccccc1)c1ccccc1 (configuration not stated)
    -5%, ?, ?, -9
- O=C1CC(c2ccccc2)n2nc(NC(=O)c3cccnc3)nc2N1 (configuration not stated)
    ., 1%, ., 10
- O=C(NCCCCc1ccccc1)c1cccc(NC(=O)c2ccccc2)c1
    -18%, ., -1.8%, .
- CC(Sc1nnnn1C)C(=O)NC1CCCC1 (configuration not stated)
    1%, ., -0.8%, .
- Cc1cc(-c2cc(-c3ccc(Cl)cc3)on2)nc(NCC2CC2)n1
    11%, 5%, -5.1%, -4
- COc1ccc(OCc2nc(N)nc(Nc3cccc(C)c3C)n2)cc1
    1%, -6%, -0.4%, -5
- O=C(Nc1ccc(-n2ccc(C(F)(F)F)n2)cc1)Nc1cccc(Cl)c1
    ., 19%, ., -10
- CN(CC(=O)Nc1ccc(F)c(F)c1F)C(=O)CCc1nc2sc3c(c2c(=O)[nH]1)CCCC3
    0%, ., ?, .
- CC1CCN(c2ccc(-c3cccc(NC(=O)C(F)(F)F)c3)nn2)CC1
    -2%, ?, 0.3%, .
- Cn1c(N)c(C(=O)Nc2ccc(-c3ccccc3)cc2)sc1=S
    22%, 9%, 0.5%, 0
- Cc1ccccc1-c1nc(-c2cccnc2)no1
    6%, -48%, -4.6%, 6
- O=C(CCNS(=O)(=O)c1ccc(F)c(Cl)c1)NCc1ccccc1F
    2%, ., -1.3%, .
- CCCOc1ccc(N2C(=O)CC(N3CCC(C(=O)OCC)CC3)C2=O)cc1 (configuration not stated)
    -17%, -8%, -4.3%, 5
- CCN(CC)CCN(C(=O)c1ccc2c(c1)CCCC2)c1nc2ccc(C)cc2s1
    -9%, -16%, 0.1%, .
- O=C1NC(CCc2ccccc2)C(=O)N1Cc1ccccc1Cl (configuration not stated)
    -8%, -3%, ?, -2
- COc1cc(OC)c(NC(=O)CS(=O)(=O)Cc2nc(-c3ccc(C)cc3)oc2C)cc1Cl
    0%, 0%, -0.3%, -11
- CCNC(=O)NC(=O)C(C)OC(=O)c1oc2ccccc2c1CSC1CCCCC1 (configuration not stated)
    19%, -6%, 1.0%, 6
- Cc1ccc(CNC(=O)C2CCN(c3nnc(N4CCCC4=O)s3)CC2)cc1
    -11%, -1%, 1.8%, .
- COc1cccc(NC(=O)CSc2nnc(Cc3ccc(OC)c(OC)c3)o2)c1
    -14%, -12%, -1.2%, .
- CCN(C(=O)COC(=O)c1c(C)nn(-c2ccccc2)c1C)C1CCS(=O)(=O)C1 (configuration not stated)
    -24%, -34%, -0.2%, 0
